# NOMO-1 viab = NOMO-1 AML cell viability reduction, primary screen, STK33 inhibitor project, CellTiter-Glo luminescence. NOMO-1 AML viability, 72 h. inhibition, % (no concentration beside the values). 7.5% of 37,000 active;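 active = most replicates above 80%; inconclusive = exactly half above 80%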;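 note: wells of about 30 µL received 25 nL stock; 0% = median of vehicle wells and 100% = reference inhibitor level; the first replicate is given; inactives centre near 10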
# The depositor's hits bear a star; ? = inconclusive. This is a subset (hit frequency here may not be typical).
structure | NOMO-1 viab
C[C@@H]1CN([C@@H](C)CO)C(=O)c2cccc(NC(=O)NC3CCCCC3)c2O[C@H]1CN(C)C(=O)NC1CCCCC1 | 18
NC(=O)c1ccc(NC(=O)CNS(=O)(=O)c2cc(Cl)ccc2Cl)cc1 | -13
CC(C)NC(=O)N(C)C[C@H]1Oc2ccc(NC(=O)Nc3ccc4c(c3)OCO4)cc2CC(=O)N([C@@H](C)CO)C[C@H]1C | -1
COc1ccccc1NC(=O)CSc1nc(C)cc(-c2ccccc2)n1 | 28
Cc1cc2ncn(CC(O)COc3ccc(C(C)C)cc3)c2cc1C (stereo unspecified) | ?
CC(C)NC(=O)Nc1cccc2c1O[C@H](CN(C)Cc1ccc(Cl)c(Cl)c1)[C@H](C)CN([C@H](C)CO)C2=O | 24
NC(=S)/N=C1\CCCCC1=C1CCCCC1 | 17
C[C@H]1CN([C@@H](C)CO)C(=O)c2cc(NC(=O)Nc3ccc(C(F)(F)F)cc3)ccc2O[C@@H]1CN(C)S(=O)(=O)c1cn(C)cn1 | -6
COc1ccc(S(=O)(=O)Nc2ccc3c(c2)C(=O)N([C@H](C)CO)C[C@H](C)[C@@H](CN(C)C(=O)Nc2cccc4ccccc24)O3)cc1 | 15
C[C@@H]1CN([C@@H](C)CO)C(=O)Cc2cc(NS(=O)(=O)c3ccc(F)cc3)ccc2O[C@@H]1CN(C)S(C)(=O)=O | 23
COc1ccc(NC(=O)Nc2ccc3c(c2)CC(=O)N([C@H](C)CO)C[C@@H](C)[C@H](CN(C)Cc2ccc4c(c2)OCO4)O3)cc1 | 21
Cc1ccc(S(=O)(=O)N(C)C[C@@H]2Oc3ccc(NS(=O)(=O)c4c(C)noc4C)cc3C(=O)N([C@@H](C)CO)C[C@H]2C)cc1 | 4

# Additional records
structure | NOMO-1 viab
Cc1ccc(S(=O)(=O)NCCN2CCOCC2)cc1-c1nnc2c3ccccc3c(C)nn12 | -9
CN(C)c1nc(-c2ccc(Cl)cc2)[nH]c(=O)n1 | -3
O=C(c1cccs1)c1coc2ccc(O)c(CN(CCO)CCO)c12 | -4
C[C@H]1CN([C@@H](C)CO)C(=O)Cc2cc(NS(=O)(=O)c3cccs3)ccc2O[C@H]1CN(C)C(=O)Nc1cccc2ccccc12 | 39
C[C@@H]1CN([C@@H](C)CO)C(=O)c2cccc(NC(=O)CCCCCC(=O)Nc3ccccc3N)c2O[C@H]1CN(C)CC1CC1 | 128*
Cc1cc(C(=O)Nc2cccc3c2O[C@@H](CN(C)C(=O)Nc2cccc4ccccc24)[C@H](C)CN([C@@H](C)CO)C3=O)n(C)n1 | 15
COc1ccc(C(=O)CSc2nc3sc(C)c(C)c3c(=O)[nH]2)cc1C | 6
NCCNS(=O)(=O)c1cccc2cnccc12 | 19
C[C@@H]1CCCCO[C@@H](CN(C)Cc2ccc(Cl)c(Cl)c2)[C@@H](C)CN([C@H](C)CO)C(=O)c2cc(NS(=O)(=O)c3ccccc3)ccc2O1 | 69
N#CC1=C(N)S[C@H](C(=O)c2ccccc2)[C@H]1c1ccc(Br)c(F)c1 | ?
CC(=O)Nc1ccc(NC(=O)CN(c2cccc(C(F)(F)F)c2)S(C)(=O)=O)cc1 | 45
C[C@@H]1CN([C@H](C)CO)C(=O)c2cc(NC(=O)C3CCCCC3)ccc2O[C@@H]1CN(C)Cc1ccc(-c2ccccc2)cc1 | 27

# Sorted by SMILES length (lowest first): 3 of the compounds above.
structure | NOMO-1 viab
NCCNS(=O)(=O)c1cccc2cnccc12 | 19
C[C@@H]1CN([C@@H](C)CO)C(=O)c2cccc(NC(=O)CCCCCC(=O)Nc3ccccc3N)c2O[C@H]1CN(C)CC1CC1 | 128*
C[C@@H]1CCCCO[C@@H](CN(C)Cc2ccc(Cl)c(Cl)c2)[C@@H](C)CN([C@H](C)CO)C(=O)c2cc(NS(=O)(=O)c3ccccc3)ccc2O1 | 69

# Next compounds
structure | NOMO-1 viab
C[C@H]1CN([C@@H](C)CO)C(=O)c2cccc(NS(=O)(=O)c3ccc(Cl)cc3)c2O[C@@H]1CN(C)CC1CC1 | -8
COc1ccc(NC(=O)N(C)C[C@@H]2Oc3ccc(NC(=O)Nc4cccc5ccccc45)cc3C(=O)N([C@H](C)CO)C[C@@H]2C)cc1 | 14
COc1ccc(CN(C)C[C@H]2Oc3ccc(NS(=O)(=O)c4cn(C)cn4)cc3C(=O)N([C@@H](C)CO)C[C@H]2C)cc1 | -3
COc1ccc(CN(C)C[C@H]2Oc3ccc(NC(=O)C4CCCCC4)cc3C(=O)N([C@@H](C)CO)C[C@H]2C)cc1 | 12
COc1ccc(S(=O)(=O)Nc2ccc3c(c2)C(=O)N([C@@H](C)CO)C[C@H](C)[C@@H](CN(C)S(=O)(=O)c2ccc(C)cc2)O3)cc1 | 21
COc1ccccc1C(=O)NC1(C(F)(F)F)C(=O)N(Cc2ccco2)C2=C1C(=O)CC(C)(C)C2 (stereo unspecified) | 40
C[C@@H]1CN([C@H](C)CO)C(=O)c2cc(NC(=O)Nc3ccccc3)ccc2O[C@@H]1CN(C)CC1CCCCC1 | 15
Cc1noc(C)c1S(=O)(=O)N(C)C[C@H]1Oc2ccc(NS(=O)(=O)c3ccccc3)cc2CC(=O)N([C@H](C)CO)C[C@H]1C | 4
COc1ccc(NC(=O)Nc2ccc3c(c2)C(=O)N([C@H](C)CO)C[C@H](C)[C@H](CN(C)S(=O)(=O)c2ccc(F)cc2)OCCCC[C@@H](C)O3)cc1 | 31
O=C(CC1(O)C(=O)N(Cc2ccc(Cl)c(Cl)c2)c2ccccc21)c1cccc([N+](=O)[O-])c1 (stereo unspecified) | 108*
C[C@H](CO)N1C[C@H](C)[C@@H](CN(C)C)Oc2ccc(NS(C)(=O)=O)cc2C1=O | 15
Cc1ccc(S(=O)(=O)N(C)C[C@@H]2Oc3ccc(NS(=O)(=O)c4c(C)noc4C)cc3C(=O)N([C@H](C)CO)C[C@H]2C)cc1 | 3

# The list continues:
structure | NOMO-1 viab
Cc1c(NC(=O)CN(c2ccc(F)c(Cl)c2)S(C)(=O)=O)cccc1[N+](=O)[O-] | 13
C[C@@H]1CN([C@@H](C)CO)C(=O)c2cccc(NC(=O)C3CC3)c2O[C@@H]1CN(C)C(=O)Nc1cccc2ccccc12 | 8
CCOC(=O)c1c(NC(=O)c2ccc(Cn3cc(Cl)cn3)o2)sc2c1CCCCC2 | 36
CCn1c(SCC(=O)Nc2ccc(F)c(F)c2)nnc1-c1ccncc1 | 10
Cc1noc(C)c1NC(=O)N(C)C[C@H]1Oc2c(NS(=O)(=O)c3cn(C)cn3)cccc2C(=O)N([C@H](C)CO)C[C@@H]1C | 4
O=C(COc1ccc([N+](=O)[O-])cc1)Nc1ccc2oc(-c3cccc(F)c3)nc2c1 | 17
Cc1noc(C)c1S(=O)(=O)Nc1ccc2c(c1)C(=O)N([C@H](C)CO)C[C@@H](C)[C@@H](CN(C)C(=O)NC1CCCCC1)O2 | 5
C[C@H]1CN([C@@H](C)CO)C(=O)c2cccc(NS(=O)(=O)c3ccccc3)c2O[C@H]1CN(C)S(=O)(=O)c1cn(C)cn1 | 2
C[C@@H]1CN([C@@H](C)CO)C(=O)c2cc(NC(=O)CCC(F)(F)F)ccc2O[C@H]1CN(C)C(=O)Nc1ccc(F)cc1 | 3
O=C(CCc1nc(-c2ccccc2F)no1)NC1CCCCC1 | -2
Cn1c(SCc2nc(-c3cccs3)no2)nnc1-c1ccco1 | 8
COc1ccc(Cl)cc1NC(=O)CN(C)S(=O)(=O)c1ccc2ccccc2c1 | 3

# (more compounds)
structure | NOMO-1 viab
C[C@@H]1CN([C@H](C)CO)C(=O)Cc2cc(NS(=O)(=O)c3ccc(Cl)cc3)ccc2O[C@H]1CN(C)C(=O)NC1CCCCC1 | 6
COc1ccc(NC(=O)N(C)C[C@@H]2Oc3c(NC(=O)c4ccncc4)cccc3C(=O)N([C@@H](C)CO)C[C@H]2C)cc1 | 23
CNC[C@@H]1Oc2ccc(N(C)C)cc2CC(=O)N([C@@H](C)CO)C[C@@H]1C | -26
COc1ccc(Cc2nnc(SCc3nc4ccccc4c(=O)[nH]3)n2C)cc1 | -2
C[C@H](CO)N1C[C@H](C)[C@@H](CN(C)Cc2ccc3c(c2)OCO3)Oc2ccc(NC(=O)C3CCCCC3)cc2C1=O | 22
Cc1n[nH]c(C)c1C(=O)CC1(O)C(=O)N(Cc2ccccc2)c2ccccc21 (stereo unspecified) | 5
Cc1cccc(OCC(=O)Nc2c[nH]c(=O)[nH]c2=O)c1C | 6
C[C@H]1CN([C@@H](C)CO)C(=O)c2cc(NC(=O)Nc3ccc(C(F)(F)F)cc3)ccc2O[C@H]1CN(C)Cc1ccc(C(F)(F)F)cc1 | 115*
NS(=O)(=O)c1ccc(NC(=S)Nc2nn(Cc3ccc(Cl)cc3Cl)cc2Cl)cc1 | 32
O=C1CSC(c2ccccc2)N1CCc1ccccc1 (stereo unspecified) | 51
O=c1n(Cc2ccccc2)c2ccccc2n1Cc1ccccc1 | 23
COc1cc([N+](=O)[O-])cc(CN2CCN(CCO)CC2)c1O | -18

# Remaining list, next part.
structure | NOMO-1 viab
CS(=O)(=O)N(CC(=O)NC1CCCCC1)c1cccc(F)c1 | 1
O=C(Nc1sccc1C(=O)N1CCOCC1)c1cc2ccccc2oc1=O | 35
Cc1nc2nc[nH]n2c(=O)c1NS(=O)(=O)c1cccs1 | 10
CCOC(=O)C1CCCCN1Cc1ccc(OC)c(O)c1 (stereo unspecified) | 25
Cc1noc(C)c1S(=O)(=O)Nc1ccc2c(c1)CC(=O)N([C@H](C)CO)C[C@@H](C)[C@H](CN(C)Cc1ccc(-c3ccccc3)cc1)O2 | 44
C[C@@H]1CN([C@@H](C)CO)C(=O)c2cc(NC(=O)CCCCCC(=O)Nc3ccccc3N)ccc2O[C@@H]1CN(C)C(=O)Nc1ccc(F)cc1 | -5
COc1ccc(-n2c(SCC(=O)Nc3ccc(Cl)cc3C)nnc2-c2ccccc2F)cc1 | 10
COc1ccc(NC(=O)N(C)C[C@H]2Oc3ccc(NS(=O)(=O)c4cn(C)cn4)cc3CC(=O)N([C@@H](C)CO)C[C@H]2C)cc1 | 13
COc1ccc(CN(C)C[C@@H]2Oc3c(NS(C)(=O)=O)cccc3C(=O)N([C@@H](C)CO)C[C@H]2C)cc1 | 20
Cc1ccc(S(=O)(=O)Nc2ccc3c(c2)C(=O)N([C@H](C)CO)C[C@@H](C)[C@@H](CN(C)C(=O)Nc2cccc4ccccc24)O3)cc1 | 10
C[C@@H]1CN([C@@H](C)CO)C(=O)Cc2cc(NC(=O)Cc3ccccc3)ccc2O[C@@H]1CN(C)C(=O)Nc1ccc2c(c1)OCO2 | 4
C[C@@H]1CN([C@@H](C)CO)C(=O)c2cccc(NS(=O)(=O)c3cn(C)cn3)c2O[C@H]1CN(C)Cc1ccc(C(=O)O)cc1 | 9

# Next part.
structure | NOMO-1 viab
Cc1ccc(Nc2nc(Oc3ccc(OCc4ccccc4)nn3)nc(N(C)C)n2)cc1 | 33
Cc1ccc(S(=O)(=O)c2ccc(C)cc2)cc1 | -2
C[C@@H]1CN([C@@H](C)CO)C(=O)Cc2cc(NC(=O)Cc3cn(C)c4ccccc34)ccc2O[C@@H]1CN(C)S(=O)(=O)c1ccc(Cl)cc1 | 30
CC(=O)c1cccc(NC(=S)N2CCN(CCN3C(=O)c4cccc5cccc(c45)C3=O)CC2)c1 | 11
O=C(CSc1nc2ccccc2c(=O)[nH]1)Nc1ccc2ccccc2c1 | 11
C[C@@H]1CN([C@H](C)CO)C(=O)Cc2cc(NS(=O)(=O)c3ccc(F)cc3)ccc2O[C@@H]1CN(C)Cc1ccc(Cl)c(Cl)c1 | 106*
COc1ccc2c(c1)c(=O)oc1cc(OCC(=O)Nc3cc(C)cc(C)c3)ccc12 | 94*
C[C@H](CO)N1C[C@H](C)[C@@H](CN(C)S(=O)(=O)c2ccc(F)cc2)Oc2ccc(NS(=O)(=O)c3ccc(F)cc3)cc2C1=O | 2
O=C(Cn1cnc([N+](=O)[O-])n1)Nc1ccc(Cl)cc1C(F)(F)F | 39
C[C@H](CO)N1C[C@H](C)[C@H](CN(C)C(=O)Nc2ccc(C(F)(F)F)cc2)Oc2c(NC(=O)Nc3cccc4ccccc34)cccc2C1=O | 102*
C[C@H]1CN([C@@H](C)CO)C(=O)Cc2cc(NS(=O)(=O)c3ccccc3)ccc2O[C@@H]1CN(C)C(=O)Nc1ccc(C(F)(F)F)cc1 | 21
COc1cc(O)c(C(=O)c2c(O)cc(C)cc2O)c(C(=O)O)c1 | 7

# (list continues)
structure | NOMO-1 viab
C[C@H]1CN([C@@H](C)CO)C(=O)Cc2cc(NS(=O)(=O)c3ccc(F)cc3)ccc2O[C@H]1CN(C)Cc1ccccc1 | 24
C[C@H]1CN([C@@H](C)CO)C(=O)Cc2cc(NS(=O)(=O)c3cn(C)cn3)ccc2O[C@H]1CN(C)C(=O)Nc1ccc(F)cc1 | 12
COC(=O)c1ccccc1NC(=O)CN(c1ccc(C)c(Cl)c1)S(C)(=O)=O | 29
Cn1c(SCC(=O)Nc2ccc(C(=O)O)cc2)nnc1-c1ccc(Cl)cc1Cl | 6
CC1=C(CO)C(=O)OC([C@@H](C)[C@H]2CCC3C4CC=C5C[C@@H](O[C@@H]6O[C@H](CO)[C@@H](O)[C@H](O)[C@H]6O)C[C@H](O)[C@]5(C)C4CC[C@@]32C)C1 (stereo partly specified) | 26
CCCNC(=O)[C@H]1O[C@@H]1C(=O)N[C@H](C(=O)N1CCC[C@H]1C(=O)OC)C(C)CC (stereo partly specified) | 141*
COc1cc([C@H]2OC[C@H]3[C@@H]2CO[C@@H]3c2ccc(O)c(OC)c2)ccc1O | 5
C[C@H]1CN([C@@H](C)CO)C(=O)c2cccc(NC(=O)C3CCOCC3)c2O[C@H]1CN(C)C(=O)Nc1cccc2ccccc12 | 4
Cc1onc(-c2ccccc2)c1C(=O)Nc1cccc2nsnc12 | 24
C[C@@H]1CN([C@H](C)CO)C(=O)c2cccc(NC(=O)C3CCOCC3)c2O[C@H]1CN(C)Cc1ccccc1 | 29

# Three entries picked at random from the list so far, as already listed:
structure | NOMO-1 viab
C[C@H]1CN([C@@H](C)CO)C(=O)Cc2cc(NS(=O)(=O)c3cn(C)cn3)ccc2O[C@H]1CN(C)C(=O)Nc1ccc(F)cc1 | 12
C[C@H]1CN([C@@H](C)CO)C(=O)Cc2cc(NS(=O)(=O)c3ccc(F)cc3)ccc2O[C@H]1CN(C)Cc1ccccc1 | 24
COC(=O)c1ccccc1NC(=O)CN(c1ccc(C)c(Cl)c1)S(C)(=O)=O | 29

# Compound activity: PubChem, Broad Institute
